Screening data deposited in PubChem by several laboratories.
Autofluor counter: compound fluorescence in toxin protease inhibitor counterscreen; 3.1% of 360,000 active; AID 624483; fluorescence intensity (concentration not given with the values); compound autofluorescence counterscreen, microsphere flow cytometry; stronger effect = higher value;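 active = at least 3 SD above the mean of all compounds, about 16000 in these data; inconclusive = too few beads counted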;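 also: 100 nL of 1 mM stock went into each well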
RN4220 kill: growth inhibition of S. aureus RN4220, primary screen, OD600; 0.33% of 330,000 active; 16 h; AID 1259311, 2017; inhibition, % (no concentration beside the values);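 active = z-score of -3 or lower and OD600 up to 0.18 on both plates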;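 also: plate controls were untreated cells for no effect and reference antibiotic for full effect; stock transfer was 100 nL into about 80 µL; one replicate is shown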
PrP 5UTR inh: inhibition of PrP 5' UTR reporter expression. cell-based PrP 5' UTR mRNA reporter, plate reader. inhibition, % (no concentration beside the values). 0.35% of 340,000 active;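 active = every replicate at 50% or more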;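 also: 0 = median of the neutral control wells; tested in H4 reporter cells; numbers are from one replicate; inactives centre near -14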
ugtP null kill: growth inhibition of ugtP-null S. aureus, primary screen, RN4220 ugtP deletion, OD600. 16 h; some inactives read as strong as hits. 0.54% of 330,000 active. growth inhibition, % (no concentration beside the values). AID 1259309, 2017;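 active = z-score under -3 and OD600 up to 0.15 on both plates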;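 also: plate controls were untreated wells for no effect and antibiotic for full effect; wells of about 80 µL received 100 nL stock; the first replicate is given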
Mtb hypoxia inh: PubChem AID 1159583. 0.1% of 300,000 active. M. tuberculosis hypoxia-regulated fluorescent reporter, fluorescence. fluorescence inhibition, % (no concentration beside the values);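 active = 35 to 45% if threefold the growth effect, above 45% if 1.5-fold the growth effect; inactive = the rest, general growth blockers included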;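 also: wells of about 50 µL received 100 nL stock; 0% = vehicle wells and 100% = reference inhibitor wells; whole bacteria with a GFP reporter of the hypoxia response; strong numbers were not always called active; many hits fall short of the cut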
BJeLR viability: MLPCN primary cell-based screen for lethality selective to Ras in HRASV12 cells | BJeLR (HRASV12) viability, CellTiter-Glo ATP luminescence, 48 h; reference of the scale not given here | 0.17% of 300,000 active | inhibition, % (concentration not given with the values);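 active = replicate mean above 50%; inconclusive = above 50% but judged a plate artefact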;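 also: 50 nL library stock added to about 25 µL; numbers are from one replicate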
Mtb hypoxia inh growth: further read-out of Mtb hypoxia inh, marked with its call; growth inhibition, %; measured here: M. tuberculosis growth (absorbance);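 0% = vehicle and 100% = reference antibiotic; read after six days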
* = called active by the depositor; ? = inconclusive; · = not tested or not shown; & = joins results of further samples. An unsorted share of the library; overall some 4% were active at least once.

Structure	PrP 5UTR inh	Mtb hypoxia inh	BJeLR viability	Autofluor counter	Mtb hypoxia inh growth	RN4220 kill	ugtP null kill
NC(=NCCCCCCN=C(N)N=C(N)Nc1ccc(Cl)cc1)N=C(N)Nc1ccc(Cl)cc1	·	·	·	·	·	99.8*	100.4*
FC(F)(F)c1cccc(Nc2cc(-c3ccccc3)nc3ncnn23)c1	-8.0	3.4	-6.5	3696	-14.0	0.5	-4.8
CC(=O)Nc1ccc(NC(=O)CSc2nnc(C3CC3)n2-c2ccccc2)cc1	16.3	-10.2	·	3882	4.8	-2.3	-2.8
Cc1ccccc1N(CC(=O)Nc1ccc(F)cc1)S(C)(=O)=O	-7.2	·	-0.4	2340	·	1.0	0.2
O=C(Sc1cccc2cccnc12)c1ccc(F)cc1	·	·	·	·	·	33.1	-1.2
CCOc1cccc(OCCOCCNC(C)(C)C)c1	-6.0	-5.1	5.2	2139	9.7	-1.6	0.4
COC(=O)C1=C(C(=O)OC)C2N(C)c3ccccc3[C@@]23CC(C(=O)OC)N(C(=O)c2cccs2)C3=N1 (some centres not stated)	·	13.9	·	·	15.6	7.6	2.8
COCCNC(=O)c1onc(CSc2ccccc2)c1C(=O)O	-17.6	-0.1	-3.9	4025	0.8	4.6	2.1
CC(C)(C)c1nn(-c2ccccc2)c2[nH]c(=O)c(CNCc3ccco3)cc12	1.9	16.2	4.1	5012	23.6	2.9	2.5
COc1ccc(C(=O)NNC(=O)CSc2nc3c([nH]2)c(=O)n(C)c(=O)n3C)cc1	1.9	11.0	0.3	4031	5.9	6.1	2.9
Cc1ccc(Nc2nc(N)nc(CSc3nncn3C)n2)cc1	-34.8	-11.7	-14.2	2877	-4.1	3.6	0.8
CCOC(=O)NCC(C#CCN(CC)CC)N(CC)CC (configuration not stated)	-17.3	·	-6.6	2978	·	2.8	-1.3
O=C1NCCCC1C(=O)NN=Cc1ccc([N+](=O)[O-])cc1 (configuration not stated)	·	-5.2	·	·	0.2	5.4	5.9
O=C(Nc1cccc(-c2nc3cccnc3s2)c1)C1c2ccccc2Oc2ccccc21	-9.9	0.8	-0.8	5259	1.9	16.8	16.5
CC1(C)CC2(CCO1)OC(=O)CC2C(=O)Nc1c(Cl)cccc1Cl (configuration not stated)	-16.3	-2.6	-5.4	4158	-1.2	1.2	2.6
COc1ccc2c3c1OC1CC(O)C=CC31CCN(C)C2 (configuration not stated)	-3.6&-4.5	14.6	2.3&-13.5	3935&4275	-0.5	6.0&-1.6	13.2&6.4
Cc1cccc(NC2=C(C#N)C(=O)NC3(CCCC3)S2)c1	-13.5	10.8	-2.3	4194	-1.8	4.8	9.4
CCC(=O)N(C)CCc1cc2c(c(OC)c1C=NNC(=O)c1ccc(Br)cc1)OCO2	·	7.7	·	·	4.8	1.2	7.4
CCOC(=O)c1cnc2cc(C)ccn2c1=O	-27.6	1.9	11.4	7904	4.2	2.8	-2.5
CC(C)OCCCNS(=O)(=O)c1ccc2c(c1)OCCO2	-9.5	3.2	-0.8	5933	10.4	0.8	-0.5
COc1cc(Cl)cc(/C=C/c2ccc3cccc(O)c3n2)c1OC	9.6	0.1	1.7	3940	0.8	13.0	7.2
Cc1cccc(N(C)C(=O)c2coc(=O)c3ccccc23)c1	-13.7	16.5	3.9	2194	9.7	7.8	9.6
Nc1cc(=O)[nH]c(SCCSc2ccccc2F)n1	24.2	2.3	-2.2	3072	0.2	6.0	-1.6
CN=Cc1c(NC)nc2c(C)cccn2c1=O	1.7	·	-5.9	2630	·	-4.4	6.0
CN(C)C(CNC(=O)CSc1nc2sc3c(c2c(=O)n1C)CCC3)c1ccccc1 (configuration not stated)	0.5	2.1	-8.0	?	6.9	-0.7	-0.9
O=C(CCNC(=O)c1ccco1)Nc1nc(-c2ccccc2)cs1	·	-2.2	·	4018	2.4	-5.3	-5.5
CSc1ccc(CN(C)C(=O)CN2C(=O)NC3(CCCC3)C2=O)cc1	-19.8	14.7	-8.0	3976	4.4	3.8	6.0
CC1CC(C)(C)NC(=S)N1CCCC(=O)N1CCN(c2ccc(F)cc2)CC1 (configuration not stated)	5.5	-2.7	-6.5	7352	3.8	5.4	3.9
Cc1cccc(N)c1SC1CCCCC1O (configuration not stated)	-19.6	10.1	-0.1	2473	7.9	2.3	-2.0
O=C(c1ccc(-c2ccccc2Cl)o1)N1CCCC(C(F)(F)F)C1 (configuration not stated)	-31.6	1.7	·	6477	-5.0	11.4	14.8

Laid out differently: results already given.
O=C1NCCCC1C(=O)NN=Cc1ccc([N+](=O)[O-])cc1 (configuration not stated)
  PrP 5UTR inh = ·
  Mtb hypoxia inh = -5.2
  BJeLR viability = ·
  Autofluor counter = ·
  Mtb hypoxia inh growth = 0.2
  RN4220 kill = 5.4
  ugtP null kill = 5.9

O=C(Nc1cccc(-c2nc3cccnc3s2)c1)C1c2ccccc2Oc2ccccc21
  PrP 5UTR inh = -9.9
  Mtb hypoxia inh = 0.8
  BJeLR viability = -0.8
  Autofluor counter = 5259
  Mtb hypoxia inh growth = 1.9
  RN4220 kill = 16.8
  ugtP null kill = 16.5

CC1(C)CC2(CCO1)OC(=O)CC2C(=O)Nc1c(Cl)cccc1Cl (configuration not stated)
  PrP 5UTR inh = -16.3
  Mtb hypoxia inh = -2.6
  BJeLR viability = -5.4
  Autofluor counter = 4158
  Mtb hypoxia inh growth = -1.2
  RN4220 kill = 1.2
  ugtP null kill = 2.6

Going on with the list.
Structure	PrP 5UTR inh	Mtb hypoxia inh	BJeLR viability	Autofluor counter	Mtb hypoxia inh growth	RN4220 kill	ugtP null kill
COc1cc(NS(=O)(=O)c2ccc(NC(=S)NC(=O)c3ccc(F)c(F)c3)cc2)nc(OC)n1	-11.2	8.7	10.5	5134	0.1	10.7	41.0
Cc1ccc(S(=O)(=O)C2(C(=O)Nc3ccc(C(C)C)cc3)CC2)cc1	-19.1	0.7	-9.4	5069	-2.6	2.9	6.3
O=C(c1cnc2n(c1=O)CCS2)N1CCCc2ccccc21	-29.0	0.9	4.9	22039*	1.7	5.6	5.9
Cc1nn(Cc2ccccc2Cl)c(C)c1NC(=O)/C=C/c1cnn(C)c1	-15.8	-1.6	3.4	10847	18.4	1.4	-0.7
C=CCN1C(=NC(=O)CCC)SC2CS(=O)(=O)CC21 (configuration not stated)	-16.5	6.2	3.4	5387	8.5	2.9	1.4
CC(C)[C@H](NC(=O)[C@@H]1Cc2ccccc2CN1)C(=O)Nc1ccc2c(c1)OCCO2	-25.2	1.9	7.6	6389	1.0	-0.3	1.3
COc1cccc(C2C(C(=O)c3cc4cccc(OC)c4o3)=C(O)C(=O)N2c2cc(C)on2)c1OC (configuration not stated)	-91.8	·	-2.5	2257	·	-2.0	-5.5
Fc1ccc(-c2cc(C(F)(F)F)nc(-n3cc(Cl)cn3)n2)cc1	-24.7	10.3	17.1	4847	7.3	5.1	11.7
NC(=S)Nc1c(Cl)cccc1Cl	-18.7	7.9	-4.0	4313	2.6	3.1	2.6
C[N+](C)(C)CCCCCC(=O)C=NO	·	-7.7	·	·	-7.9	3.1	7.4
O=C(NC1CCCC1)c1c[nH]c2ccc(F)cc2c1=O	-6.4	1.5	-13.5	3623	7.8	3.5	-15.4
Cc1ccc(C)c(S(=O)(=O)NCc2ccc(C(=O)NCc3ccco3)cc2)c1	-13.7	17.7	4.6	3811	11.0	0.1	3.8
CNc1nc(Cl)c(SC)c(NCc2cccc(OC)c2)n1	-8.9	-4.5	-12.3	4483	-0.1	-4.1	10.8
CCN(C(=O)COC(=O)CNC(=O)c1ccc(Cl)cc1Cl)c1c(N)n(Cc2ccccc2)c(=O)[nH]c1=O	-52.9	6.6	·	8099	3.9	1.1	8.5
O=C(COc1ccc(Cl)cc1Br)NC(=O)NC1CCCC1	-101.8	6.9	·	6119	2.4	6.4	13.0
Fc1ccc(-c2ccnc3nc(N4CCOCC4)nn23)cc1	-26.8	11.4	5.0	23704*	7.0	5.3	-14.8
O=C(CCN=C1NS(=O)(=O)c2ccccc21)OCc1nnc(-c2ccc([N+](=O)[O-])cc2)o1	-14.3	6.0	·	3414	10.7	2.7	3.5
CCCC(=O)N1CCN(c2nc3c(OC)ccc(Cl)c3s2)CC1	2.1	9.6	6.0	5724	7.1	3.3	-2.5
O=[N+]([O-])c1cc(S(=O)(=O)N2CCCCCC2)ccc1F	-24.8	9.2	·	2471	0.5	-4.0	2.2
Cc1cnc(CNC(=O)C2CCC(=O)N(CCc3cccc(F)c3)C2)[nH]1 (configuration not stated)	-11.6	3.9	-0.9	4460	-5.5	5.8	11.2
O=C(Nc1ccnn1C1CCN(C2CCCC2)CC1)c1ccccc1Cl	-12.4	1.7	0.3	6046	-5.6	0.4	1.0
CC(C)(CC(=O)O)CC(=O)NCc1c(Cl)cccc1Sc1ccc(Cl)cc1	·	-6.6	0.8	5845	3.5	6.5	-2.4
CN(C)Cc1ccccc1COc1ccccc1	27.7	-2.4	-13.0	10356	-6.2	4.3	11.0
CCCC(=O)Nc1ccc2nc(SCC(=O)N3CCCC3)sc2c1	-15.3	-3.6	7.3	4119	1.5	0.4	2.9
COc1cccc(OCCn2c(C)c(/C=N/n3cnnc3)c3ccccc32)c1	-23.6	·	5.5	5176	·	·	·
COc1cc(C(=O)O/N=C(\N)c2ccccn2)cc(OC)c1OC	-30.2	12.3	-6.9	5489	-6.0	3.2	5.6
O=C(NCCc1cccnc1)c1cc(COc2ccc(F)cc2F)on1	-11.6	8.3	10.5	5389	6.9	2.0	8.0
O=c1cc(NCc2ccccc2)nc2n1CCCS2	-3.4	-6.6	-5.4	1955	-2.5	7.4	3.0
O=[N+]([O-])c1cccc(-c2ccc(SCc3ccccn3)nn2)c1	-39.0	6.2	-12.9	4902	11.6	0.5	6.8
CC(NC(=O)COc1cc(=O)n(C)c2ccccc12)c1ccc2c(c1)OCCO2 (configuration not stated)	-41.9	7.7	10.0	8542	10.7	0.9	-17.7
Cc1ccc(S(=O)(=O)N2CCCC(C)C2)cc1 (configuration not stated)	-30.0	5.8	0.4	3656	7.0	5.6	7.7
COCCC(=O)N(Cc1ccc2c(c1)OCO2)C(C(=O)NC1CCCCC1)c1ccncc1 (configuration not stated)	-28.1	7.8	12.4	3789	10.6	2.7	-3.8
CCn1ncc(C2=NOC(C(=O)NCc3ccc(Cl)cc3)C2)c1C (configuration not stated)	-24.3	7.3	13.9	21413*	11.0	6.3	-2.7
CCOC(=O)c1sc(NC(=O)CSc2nc3c(cc2C#N)CCCCCC3)c(C#N)c1C	-8.7	-7.8	14.3	17520*	12.6	2.6	-15.7
O=C(Nc1ccc(S(=O)(=O)NC2=NCCCCC2)cc1)c1ccco1	-14.5	5.4	-7.6	4421	2.9	8.5	5.0
O=c1cc(O)n(C2CCCCCC2)c(=O)[nH]1	-8.6	-14.5	7.9	3975	7.5	1.1	3.3
O=C(O)COn1c(-c2ccc(Cl)cc2)nc2ccc(Cl)cc21	-33.3	1.6	-0.6	2456	1.8	2.7	-1.2
CCOC(=O)N1CCN(C(=S)NC(=O)c2cncc(Br)c2)CC1	-15.8	3.4	8.7	2436	0.6	2.4	9.4
